Chronic BCR inh: inhibitors of chronic active B-cell receptor signaling; ABC-DLBCL IkBa-CBG/CBR reporter, luminescence ratio, 4 h; Potency, µM (top dose mostly 46.1 µM), for inactives: top-dose ratio change, negative = lower green/red ratio, usual class: inhibitors; 340,000 tested, 0.05% active; AID 493014; active = well fitted inhibition curve with a large enough effect in the signal ratio, with a control signal flat, not every such curve was filed as active; inconclusive = small, poorly fitted or top-dose-only effect, or effect the other way, or a change in a side signal; the % refers to the signal ratio;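 note: potency is the fitted concentration of half-maximal effect; plate controls were basal doxycycline-induced cells for no effect and cells given 10 µM MG132 for full effect; MG132 reads +100%, hits lower the ratio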
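Cell line TMD8 (human ABC DLBCL), stably expressing tet-inducible CBG68-IkBa fusion and CBR; IMDM/0.5% FBS; cpd up to 46 uM; dox induction, 4 h, 37C/5% CO2; dual luminescence; green/red ratio; MG132 control.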
TSG101-PTAP inh: blocks PTAP/TSG101 interaction to inhibit HIV-1 budding; Q99816; Fluorescence polarization, FITC-PTAP peptide / Tsg101 binding; Potency, µM (titrated, usually from 115 µM), for inactives: top-dose activity change, negative = inhibition, usual class: inhibitors; 340,000 tested, under 10 active; AID 493005; active = well fitted inhibition curve with a large enough effect in the main read-out, with a control signal flat, not every such curve was filed as active; inconclusive = small, poorly fitted or top-dose-only effect, or effect the other way, or a change in a side signal; inactive = no such curve, though single readings can be large or run the other way; note: potency is the fitted concentration of half-maximal effect; % of control where 0% means no effect
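Fluorescence polarization binding of Tsg101 binding domain (10 uM final) to FITC-labeled PTAP peptide (50 nM final) in HEPES pH 7.5 buffer with NaCl, Tween 20, EDTA, TCEP. Compounds added before peptide; binding 20 min at RT.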
Giardia killer: kills Giardia lamblia; Giardia lamblia trophozoite viability; activity change, % at 7.66 µM, hits read low; 340,000 tested, 0.15% active; in the data active = activity change below about -80%; inconclusive = between about -30% and that limit;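 note: parasites exposed to compound for two days anaerobically before the ATP read; % is set by controls: 0 for no effect and ±100 for the full control effect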
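Viability, read as ATP luminescence: trophozoites at 100 cells/well, compound added, 48 hrs anaerobic at 37 deg C, then 15-30 min room-temperature development before reading.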
Tb PFK inh: inhibitors of T. brucei phosphofructokinase | Potency, µM (series often up to 57.5 µM), without a hit: top-dose activity, negative = inhibition, hits mostly inhibitors | T. brucei PFK, ADP-Glo luminescence | AID 485367 | 330,000 tested, 0.17% active | O15648;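 note: potency is the fitted concentration of half-maximal effect; 0% = uninhibited 1x PFK enzyme wells and -100% = no-enzyme wells; nearly all actives have a fitted effect of over 60% in size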
Target sequence (O15648 whole entry, looked up): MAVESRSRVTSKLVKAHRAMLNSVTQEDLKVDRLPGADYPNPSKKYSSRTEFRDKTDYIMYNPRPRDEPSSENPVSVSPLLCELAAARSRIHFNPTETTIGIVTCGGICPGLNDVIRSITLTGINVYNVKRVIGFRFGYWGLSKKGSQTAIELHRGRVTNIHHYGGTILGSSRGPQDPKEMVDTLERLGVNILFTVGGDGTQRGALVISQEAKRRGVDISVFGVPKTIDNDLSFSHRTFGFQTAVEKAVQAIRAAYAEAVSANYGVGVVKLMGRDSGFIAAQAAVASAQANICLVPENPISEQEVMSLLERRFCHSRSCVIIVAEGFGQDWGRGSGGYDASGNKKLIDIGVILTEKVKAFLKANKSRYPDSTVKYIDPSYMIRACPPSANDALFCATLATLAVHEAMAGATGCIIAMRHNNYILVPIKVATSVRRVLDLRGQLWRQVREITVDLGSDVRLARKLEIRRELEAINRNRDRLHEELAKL
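PFK 1.25 nM, F6P 0.5 mM, ATP 0.1 mM, 0.1 M TEA pH 8.0, 5 mM MgCl2, 0.01% Tween20, 0.1% BSA; 45 min RT. ADP-Glo readout. qHTS titration up to 57 uM; curves fitted, compounds curve-classed.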
Menin MLL FP TR: inhibitors of human menin-MLL interaction, mutant MLL peptide | O00255 | Menin + Texas Red MLL mutant peptide, fluorescence polarization | Potency, µM (top dose mostly 61.6 µM), for the others: top-dose FP activity change, negative = inhibition, most hits filed as inhibitors | 270,000 tested, 0.23% active | AID 1768; active = well fitted inhibition curve with a large enough effect in the polarisation, with a control signal flat, not every such curve was filed as active; inconclusive = small, poorly fitted or top-dose-only effect, or effect the other way, or a change in a side signal; inactive = no such curve, though single readings can be large or run the other way; the % refers to the polarisation; note: potency is the fitted concentration of half-maximal effect; % of control where 0% means no effect; many of its hits are not listed in these tables
GALK inhibitor: blocks human galactokinase activity; Purified GALK, Kinase-Glo residual ATP luminescence; P51570; Potency, µM (titrated, usually from 57.5 µM), inactives show top-dose activity change, negative = inhibition, most hits filed as inhibitors; 270,000 tested, 0.007% active; note: potency is the fitted concentration of half-maximal effect; % is set by controls: 0 for no effect and ±100 for the full control effect
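ATP-depletion format; final 35 uM ATP, 100 uM D-galactose, 5 nM enzyme; pH 8.0 HEPES/Mg2+ buffer; 60 min RT; luminescence read 10 min after detection reagent.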
a7 integrin act: activates integrin-mediated alleviation for muscular dystrophy. Potency, µM (series often up to 38.3 µM), inactives show at the highest dose activation, usual class: activators. 350,000 tested, 0.064% active. alpha7betagal myoblasts, beta-gal FDG fluorescence, 48 h;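 note: potency is the fitted concentration of half-maximal effect; 100% = response of the positive control SU9516; nearly all actives have a fitted effect of over 60% in size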
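alpha7betagal+/- myoblasts (passage 13, 250/well) treated 48 h at 37C with compounds at 1:260 dilution of DMSO stock. Lysed, then beta-galactosidase activity read as FDG fluorescence (ex 480/em 540) after 30 min, with pre-read for autofluorescence.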
Coupling enz: inhibits coupling enzyme system, counter-screen for aldolase hits. coupling enzyme system counterscreen, AmpLite Red fluorescence. activity change, negative = inhibition, % at 58.2 µM, hits read low. 290,000 tested, 0.67% active. AID 2472; in the data active = activity change below about -30%; note: % is set by controls: 0 for no effect and ±100 for the full control effect
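Counterscreen of the coupled detection system alone, without aldolase: glyceraldehyde-3-phosphate coupling enzymes plus AmpLite Red readout. Compounds at 57.5 uM final, 10 min RT preincubation, 20 min RT reaction, fluorescence 525/598 nm.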
B2AR arrestin: beta2AR (human) beta-arrestin recruitment activity. P07550. beta-arrestin recruitment to beta2AR, cell-based reporter. Potency, µM (series often up to 46.1 µM), inactives show top-dose activation, hits mostly activators. 330,000 tested, 0.02% active;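 note: potency is the fitted concentration of half-maximal effect; 0% = DMSO controls and full agonism = EC100 isoproterenol or metaproterenol; nearly all actives have a fitted effect of over 65% in size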
ASM inhibitor: human S-ASM enzyme inhibition. P17405. placental ASM, HMU-PC fluorogenic substrate, 60 min. Potency, µM (doses to about 57.5 µM), inactives show at the top dose activity change, negative = inhibition, hits mostly inhibitors. 340,000 tested, 0.006% active; note: potency is the fitted concentration of half-maximal effect
Target sequence (P17405 47-631 limits assumed): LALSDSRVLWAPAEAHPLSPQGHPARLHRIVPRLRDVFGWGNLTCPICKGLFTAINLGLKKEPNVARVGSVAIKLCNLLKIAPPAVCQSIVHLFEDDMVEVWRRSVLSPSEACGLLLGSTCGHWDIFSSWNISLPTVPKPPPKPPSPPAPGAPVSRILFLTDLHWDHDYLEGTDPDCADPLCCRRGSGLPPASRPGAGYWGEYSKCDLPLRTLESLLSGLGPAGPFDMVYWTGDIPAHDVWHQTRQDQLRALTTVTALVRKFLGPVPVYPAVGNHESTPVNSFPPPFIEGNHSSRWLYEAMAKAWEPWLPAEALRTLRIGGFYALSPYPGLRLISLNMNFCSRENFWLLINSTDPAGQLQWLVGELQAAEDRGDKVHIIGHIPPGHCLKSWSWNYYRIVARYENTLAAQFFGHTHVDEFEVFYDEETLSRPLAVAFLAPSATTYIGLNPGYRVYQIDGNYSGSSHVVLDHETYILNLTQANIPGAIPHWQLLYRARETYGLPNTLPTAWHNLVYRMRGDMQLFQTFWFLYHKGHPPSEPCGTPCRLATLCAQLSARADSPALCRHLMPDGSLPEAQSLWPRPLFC
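Fluorogenic HMU-PC substrate (9 uM final) is turned over by placental ASM in 60 min at 37 C after a 10 min compound preincubation. Reaction ended by alkaline stop (pH 10), with fluorescence read at 386/447 nm.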
An asterisk follows results filed as active; ? = inconclusive; . = no result given; [ ] = remark or other dose. Unless noted, calls come from the whole dose curve; as a rule, active = well fitted curve in the direction sought with a large enough effect; inconclusive = small, poorly fitted or top-dose-only effect, or another doubt; inactive = no such curve, though single readings can be large; an effect the other way counts as inactive or inconclusive.

Start of the data: the first 5 compounds (preview)
mol	Chronic BCR inh	TSG101-PTAP inh	Giardia killer	Tb PFK inh	Menin MLL FP TR	GALK inhibitor	a7 integrin act	Coupling enz	B2AR arrestin	ASM inhibitor
CC(NS(=O)(=O)c1ccc(F)cc1)C(c1cccs1)N1CCOCC1 (stereo not drawn)	-1%	-4%	-17	1%	-1%	.	2%	5	0.0%	1%
CN(Cc1ccco1)C(=O)CCc1nc2sc3c(c2c(=O)[nH]1)CCCC3	-10%	-5%	-13	-9%	-2%	-3%	-29%	0	-0.3%	-1%
CCOC(=O)Cc1sc(N)nc1C	0%	0%	-3	0%	15%	1%	22%	3	-0.6%	1%
CC1CC[C@@]2(C(=O)O)CC[C@]3(C)C(=CCC4[C@@]5(C)CCC(O)C(C)(C)C5CC[C@@]43C)C2C1C (stereo partly drawn)	.	.	.	.	-6%	.	.	0	.	.
CCn1c(C)nc2cc(C(=O)NNC(=S)Nc3ccccc3)ccc21	1%	-4%	28	1%	-10%	10%	17%	-2	0.2%	1%

The list itself (from the top)
mol	Chronic BCR inh	TSG101-PTAP inh	Giardia killer	Tb PFK inh	Menin MLL FP TR	GALK inhibitor	a7 integrin act	Coupling enz	B2AR arrestin	ASM inhibitor
CC(NS(=O)(=O)c1ccc(F)cc1)C(c1cccs1)N1CCOCC1 (stereo not drawn)	-1%	-4%	-17	1%	-1%	.	2%	5	0.0%	1%
CN(Cc1ccco1)C(=O)CCc1nc2sc3c(c2c(=O)[nH]1)CCCC3	-10%	-5%	-13	-9%	-2%	-3%	-29%	0	-0.3%	-1%
CCOC(=O)Cc1sc(N)nc1C	0%	0%	-3	0%	15%	1%	22%	3	-0.6%	1%
CC1CC[C@@]2(C(=O)O)CC[C@]3(C)C(=CCC4[C@@]5(C)CCC(O)C(C)(C)C5CC[C@@]43C)C2C1C (stereo partly drawn)	.	.	.	.	-6%	.	.	0	.	.
CCn1c(C)nc2cc(C(=O)NNC(=S)Nc3ccccc3)ccc21	1%	-4%	28	1%	-10%	10%	17%	-2	0.2%	1%
C=CCc1c(C)nc2c(OC)cccc2c1Cl	?	-3%	-4	-4%	-1%	8%	0%	5	0.1%	-3%
O=C(Nc1ccccc1O)/C(=C\c1ccccc1)NC(=O)c1ccccc1	-3%	0%	3	11%	9%	0%	28%	7	-0.2%	4%
O=C(N/N=C/c1ccc(F)cc1)c1ccccc1	?	-1%	17	-1%	-9%	4%	22%	1	0.0%	1%
CC(=O)c1ccc(S(=O)(=O)N2CCN(c3ccccc3F)CC2)cc1	-4%	0%	3	1%	-3%	-1%	-31%	4	0.2%	-4%
CC12CN3CCN(CC(C3)/C1=N\NC(=O)Nc1cccc(Cl)c1)C2	2%	0%	0	-10%	0%	-1%	5%	-1	0.4%	0%
CCCCOC(=O)c1nnc(-c2ccccc2)o1	?	-7%	-9	-2%	.	-1%	27%	1	0.0%	5%
CC(C)(C)NC(=O)NC(=O)COC(=O)c1c(F)cccc1Cl	-12%	-1%	-15	3%	1%	11%	?	-5	0.0%	12%
Cc1ccccc1-c1nnc(-c2cccs2)o1	-8%	-2%	-14	11%	-18%	-3%	27%	-1	0.0%	0%
CCOC(=O)N1CCN(S(=O)(=O)c2ccc(C(=O)N(CCN(CC)CC)c3nc4c(C)cccc4s3)cc2)CC1	0%	-1%	1	0%	?	-4%	-29%	-2	-1.0%	-1%
COc1ccc([N+](=O)[O-])cc1N(CC(=O)N(C)C)S(C)(=O)=O	-2%	-7%	1	-6%	3%	-1%	0%	-1	-0.5%	-2%
CC(C)(C)C(=O)Nc1nnc(-c2ccncc2)o1	9%	1%	4	0%	-1%	-1%	23%	3	-0.9%	4%
COc1ccc(OCc2cn3c(C)cc(C)nc3n2)cc1	-1%	-2%	-28	1%	1%	.	22%	2	-0.7%	3%
CCCOc1ccc(/C(O)=C2/C(=O)C(=O)N(CCCN3CCOCC3)C2c2ccncc2)cc1 (stereo not drawn)	1%	.	.	?	1%	0%	.	-62*	-1.8%	.
C=CCn1c(SCC(=O)Nc2c(C)n(C)n(-c3ccccc3)c2=O)nc2scc(-c3ccccc3)c2c1=O	11%	-7%	7	-4%	-10%	2%	31%	12	-0.4%	0%
Cc1cc(C)nc(NC(=O)COc2cc(Cl)cc(Cl)c2)n1	2%	-4%	3	-1%	6%	-2%	14%	5	-0.1%	-1%
OC1(c2cccc(C(F)(F)F)c2)CCN(Cc2nnnn2CCc2ccccc2)CC1	0%	-2%	-3	-2%	0%	0%	2%	2	-0.4%	-5%
CC1CCCCN1S(=O)(=O)c1cn(C)c(=O)n(C)c1=O (stereo not drawn)	-2%	0%	8	1%	2%	2%	4%	-2	-0.5%	2%
Nc1nc(NCCCN2CCOCC2)nc(Nc2ccccc2)c1[N+](=O)[O-]	-4%	-3%	6	-1%	0%	1%	-17%	-2	-0.1%	-4%
O=C(/C=C/Nc1ccccc1F)c1cccs1	?	0%	?	?	4%	2%	4%	2	-0.4%	10%
S=C(NCCN1CCOCC1)Nc1ccc(Cl)cc1	0%	1%	12	1%	5%	0%	-12%	2	-0.2%	4%
O=C(COc1ccc(Cl)cc1)Nc1cc(S(=O)(=O)N2CCCCC2)ccc1N1CCCCC1	3%	1%	0	7%	-11%	-1%	8%	1	2.2%	2%
C=CCn1c(-c2ccc(Cl)cc2)cnc1SC(C)C(=O)NC(N)=O (stereo not drawn)	?	-1%	?	-6%	-22%	-1%	14%	0	0.1%	3%
Cc1ccc(/C=N/N2CCN(Cc3ccccc3)CC2)o1	0%	-4%	-5	0%	-1%	0%	7%	-2	0.1%	5%
CS(=O)(=O)N(CC(=O)NCCSCc1ccccc1Cl)c1ccc(F)cc1	1%	-6%	-19	-3%	14%	1%	13%	-3	-0.1%	-4%
O=C(COc1ccccc1)Nc1ccc(S(=O)(=O)N2CCCCCC2)cc1	?	-1%	-12	3%	15%	-1%	-5%	2	0.0%	-9%
Cc1ccccc1OCC(=O)NNC(=O)Nc1ccc(Cl)cc1	?	-2%	13	-4%	35%[activator]	.	-7%	4	-0.7%	0%
O=C(CN1CCCCCC1)NN(Cc1ccccc1)c1ccccc1	-9%	1%	7	-2%	.	-1%	-10%	0	0.0%	3%
Cc1nnc(SCC(=O)NC23CC4CC(CC(C4)C2)C3)s1	-2%	-2%	-11	6%	3%	-3%	-25%	2	0.2%	0%
CCN1CCN(S(=O)(=O)c2cccc([N+](=O)[O-])c2)CC1	4%	2%	5	-8%	18%	0%	-9%	7	-0.1%	-3%
Cc1ccc(C(=O)NNC(=O)CSc2nnc(-c3ccccc3)n2Cc2ccccc2)cc1	4%	-3%	1	0%	-13%	0%	21%	8	-0.2%	0%
COC(=O)Cc1cc(=O)n2[nH]c(SC)nc2n1	?	-7%	-7	2%	-9%	-2%	5%	-2	4.6%	1%
FC(F)(F)c1ccnc(Sc2n[nH]c(C(F)(F)F)n2)c1	7%	-3%	1	-1%	.	-3%	-2%	2	0.4%	-1%
C[C@@]12C=CC(=O)C=C1CCC1C3CC(O)[C@@](O)(C(=O)CO)[C@]3(C)CC(O)[C@]12F (stereo partly drawn)	.	.	.	.	-3%	.	.	0	.	.
CON(C)c1nc(OCC#N)nc(N(C)C)n1	3%	-1%	6	-1%	-7%	2%	17%	2	0.2%	0%
Cc1ccc(NC(=O)N2CCCC2C(=O)NCC2CCCO2)cc1 (stereo not drawn)	?	-2%	-20	-1%	14%	1%	-20%	2	-1.0%	3%
O=C1CCC(=O)N1CC1CC2CCC1C2 (stereo not drawn)	-3%	-12%	-1	2%	26%	-2%	26%	1	-0.3%	-2%
CCOc1ccc2nc(SCC(=O)Nc3ccc(S(=O)(=O)N4CCCC4)cc3)c(C)cc2c1	0%	2%	0	2%	.	0%	39%	-3	0.4%	-6%
N/C(=N\OC(=O)c1cc(Br)ccc1Cl)c1ccccn1	0%	-7%	-5	2%	-15%	2%	-3%	0	-0.8%	0%
O=C(CN1CCOCC1)Nc1nc2ccc(F)cc2s1	-19%	-6%	11	5%	4%	-1%	12%	0	-0.1%	5%
O=C(c1ccc([N+](=O)[O-])cc1)N1CCOC12CCN(c1ncc(C(F)(F)F)cc1Cl)CC2	.	-1%	10	.	1%	0%	-16%	-6	.	-10%
Cc1ccc(OCC(=O)Nc2ccccc2C(=O)N2CCCCC2)cc1	-2%	-1%	7	0%	.	-2%	-47%[inhibitor]	.	-0.2%	4%

High-throughput results: PubChem BioAssay, National Center for Advancing Translational Sciences (NCATS)

The list is partial; the hit share may differ from the screen's.
